Source: PubChem BioAssay
SARS PLP yeast – qHTS of Yeast-based Assay for SARS-CoV PLP. S. cerevisiae expressing SARS-CoV PLpro, growth rescue; control for the full effect not named in the record. AID 485353, 2010. 330,000 compounds, 0.19% hits. Potency, µM (doses to about 32.9 µM), for inactives: at the highest dose activity, positive = growth rescue; further: 0% is about no effect; nearly all actives have a fitted effect of over 55% in size; growth read by luminescence after 48 h
Cruzain inh noDet – qHTS Assay for Promiscuous and Specific Inhibitors of Cruzain (without detergent); purified cruzain, Z-FR-AMC fluorescence, no detergent; Potency, µM, without a hit: max response, negative = inhibition, hits mostly inhibitors; 200,000 compounds, 2.3% hits; AID 1476, 2009; active means well fitted curve in the direction sought with a large enough effect; inconclusive means small, poorly fitted or top-dose-only effect, or another doubt; inactive means no such curve, though single readings can be large; an effect the other way counts as inactive or inconclusive;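 further: plate controls were enzyme without inhibitor for no effect and buffer without enzyme for full effect; nearly all actives have a fitted effect of over 40% in size; top concentration of the series not given in the record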
Target sequence (P25779 123-467 limits assumed): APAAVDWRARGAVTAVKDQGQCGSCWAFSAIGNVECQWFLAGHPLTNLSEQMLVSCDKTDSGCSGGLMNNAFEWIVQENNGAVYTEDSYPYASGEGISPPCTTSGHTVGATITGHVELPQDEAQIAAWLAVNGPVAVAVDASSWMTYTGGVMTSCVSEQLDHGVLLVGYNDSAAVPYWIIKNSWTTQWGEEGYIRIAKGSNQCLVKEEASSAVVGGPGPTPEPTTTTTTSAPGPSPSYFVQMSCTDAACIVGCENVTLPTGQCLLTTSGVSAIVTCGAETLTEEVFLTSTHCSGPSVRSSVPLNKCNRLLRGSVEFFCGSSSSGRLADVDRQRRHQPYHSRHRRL
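Detergent-free condition (0.00005% Triton X-100) in acetate buffer pH 5.5 with DTT. 1.5 nM enzyme and compound were pre-mixed 15 min, then 2 uM Z-FR-AMC substrate added; reaction progress from fluorescence change between first and third reads (60 s).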
2A StopGo – High Throughput Screening for Foot and Mouth Disease Virus Antivirals | human cells with a luciferase reporter of 2A StopGo recoding; control for the full effect not named in the record | Potency, µM (series often up to 57.9 µM), inactives show top-dose signal change, negative = less light | 410,000 compounds, 1.2% hits | AID 1159524, 2015; active = well fitted falling curve with a large enough effect; inconclusive = small, poorly fitted or top-dose-only effect; inactive = no such curve, though single readings can be large or run the other way; tested in HEK293T cells; further: on the % scale 0 is the no-effect control and ±100 the full control effect; nearly all actives have a fitted effect of over 45% in size; luciferase light after 4 h
Marburg entry inh – qHTS for inhibitors of binding or entry into cells for Marburg Virus | Marburg virus pseudotyped entry inhibition, cell reporter; control for the full effect not named in the record; about a third of the inactives were read at about 46 µM | Potency, µM (highest dose often 37.8 µM), for the others: at the highest dose activity change, negative = inhibition, usual class: inhibitors | 300,000 compounds, 1.8% hits | AID 540276, 2011; active = well fitted inhibition curve with a large enough effect; inconclusive = small, poorly fitted or top-dose-only effect, or effect the other way; inactive = flat fitted curve, though single readings scatter; tested in HEK293 cells; about a fifth of its hits are not listed in these tables; further: on the % scale 0 is the no-effect control and ±100 the full control effect; luciferase read-out
RE007 growth inh – qHTS Assay for Inhibitors of the HIV-1 protein Vpr. S. pombe RE007 Vpr strain, BacTiter-Glo ATP luminescence, 24 h; control for the full effect not named in the record. Potency, µM (highest dose often 92.2 µM), without a hit: at the highest dose activity change, negative = less growth. 360,000 compounds, 0.21% hits. AID 651644, 2012; active = well fitted falling curve with a large enough effect; inconclusive = small, poorly fitted or top-dose-only effect; inactive = no such curve, though single readings can be large or run the other way;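 further: on the % scale 0 is the no-effect control and ±100 the full control effect; nearly all actives have a fitted effect of over 50% in size; the assay follows cell death caused by Vpr and the record does not say whether a fall means rescue or toxicity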
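Fission yeast strain RE007, carrying one chromosomally integrated HIV-1 vpr copy, was seeded at OD 0.01 in PMG+AL medium with 23 nL pinned compound. After 24 h at 30 °C and 99% humidity, viability was read by BacTiter-Glo luminescence.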
LASV entry inh – qHTS for Inhibitors of binding or entry into cells for Lassa Virus. Lassa virus pseudotype entry inhibition, cell reporter; control for the full effect not named in the record. Potency, µM (titrated, usually from 37.9 µM), for inactives: at the highest dose activity change, negative = inhibition, hits mostly inhibitors. 300,000 compounds, 1.2% hits. AID 540256, 2011; active means well fitted inhibition curve with a large enough effect; inconclusive means small, poorly fitted or top-dose-only effect, or effect the other way; inactive means flat fitted curve, though single readings scatter; tested in HEK293 cells; further: on the % scale 0 is the no-effect control and ±100 the full control effect; nearly all actives have a fitted effect of over 50% in size; luciferase read-out
Cruzain Triton – qHTS Assay for Promiscuous and Specific Inhibitors of Cruzain (with detergent); Cruzipain (Trypanosoma cruzi), P25779; purified cruzain, Z-FR-AMC fluorescence, 0.01% Triton; Potency, µM, for inactives: max response, negative = inhibition, actives largely listed as inhibitors; 200,000 compounds, 0.43% hits; AID 1478, 2009; active means well fitted curve in the direction sought with a large enough effect; inconclusive means small, poorly fitted or top-dose-only effect, or another doubt; inactive means no such curve, though single readings can be large; an effect the other way counts as inactive or inconclusive;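 further: plate controls were neutral wells for no effect and buffer without enzyme for full effect; nearly all actives have a fitted effect of over 40% in size; top concentration of the series not given in the record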
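In this qHTS format, compounds are incubated with 1.5 nM cruzain for 15 min at room temperature before 2 uM Z-FR-AMC is added. Release of AMC is followed at 360/450 nm, and progress is taken as the 60 s fluorescence difference.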
NS1 function inh – qHTS Assay for Inhibitors of Influenza NS1 Protein Function; Potency, µM (titrated, usually from 46.1 µM), for inactives: at the top dose activity, positive = more growth; S. cerevisiae slowed by influenza A NS1, growth recovery by OD600; 270,000 compounds, 0.4% hits; further: actives are rising curves; nearly all actives have a fitted effect of over 50% in size
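A cell-based growth assay was used: compounds that relieve NS1-induced slow growth of budding yeast raise OD600. Assay medium was yeast nitrogen base with ammonium sulphate and -URA supplement, pH 6.0, with 2% galactose.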
The depositor's hits bear a star; ? = inconclusive; · = not tested or not shown; & = joins results of further samples; [ ] = another dose, or the depositor's remark. Unless noted, the call rests on the fitted dose curve; in most records, active means well fitted rising curve with a large enough effect; inconclusive means small, poorly fitted or top-dose-only effect; inactive means no such curve, though single readings can be large or run the other way. Potency means the concentration at half of the fitted maximal effect.

canonical_smiles	SARS PLP yeast	Cruzain inh noDet	2A StopGo	Marburg entry inh	RE007 growth inh	LASV entry inh	Cruzain Triton	NS1 function inh
Cc1ccc(S(=O)(=O)N2CC3CCCC2C3)cc1 (stereo not given)	-2%	·	-9%	2%[14.2 µM]	16%	-1%	·	-1%
CN(CCc1ccccn1)C(=O)CCNC(=O)Cn1cnc2ccccc2c1=O	-4%	2%	-3%	14%	44%	12%	3.2%	4%
O=C(/C=C/c1ccc(Cl)cc1)Nc1ccc(N2CCOCC2)cc1	1%	·	-7%	13%	-10%	5%	·	2%
COc1cc2c(c3ccccc13)CCCC2=O	·	·	-21%	20%	-17%	10%	·	·
CCN(CC)C(=O)C1CCN(Cc2ccc(OCc3ccccc3)c(OC)c2)CC1	2%	·	-8%	·	-10%	·	·	3%
CCC(=O)Nc1c2c(nc3c1CCC3)CCCC2	-4%	7%	-1%	-1%	-7%	15%	7.2%	-4%
Cn1c(SCc2ccccc2Br)nc2ccccc2c1=O	-1%	·	-30%	·	7%	·	·	0%
O=C1CN(C(=O)COc2c(F)c(F)cc(F)c2F)c2ccccc2N1	7%	·	-16%	·	5%	·	·	-4%
O=C(NC1CCCCCC1)C1CC(=O)N(Cc2ccccc2)C1 (stereo not given)	1%	2%	-10%	30%	0%	-29%	2.7%	1%
CCOc1ccc2nc(SCC(=O)NC3CCCc4ccccc43)sc2c1 (stereo not given)	1%	-12%	1%	-16%	-6%	-1%	-5.8%	14%
COc1ccc(NC(=O)Nc2ccc3c(c2)CCC3)cc1OC	-1%	·	8%	·	-11%	·	·	5%
CC(=O)c1ccc(Nc2nc(NCCO)nc(OC(C(F)(F)F)C(F)(F)F)n2)cc1	-29%	?	?	-20%	20%	-29%	-14%	26%
COC(=O)C1C2CCC(C2)C1C(=O)OCC(=O)c1ccccc1 (stereo not given)	2%	6%	13%	-1%	4%	5%	3.7%	-9%
C=CCN(C(=O)CCC(=O)Nc1cc(C)on1)C(C(=O)NC(C)(C)C)c1ccc(OC)cc1 (stereo not given)	0%	·	4%	?	-3%	?	·	4%
COc1ccc(N2CCn3c2nc2c3c(=O)n(CCCc3ccccc3)c(=O)n2C)cc1	1%	-25%	·	0%	·	·	2.4%	-7%
COc1ccccc1N(C(=O)NCc1ccccc1)C1=NCC(C)S1 (stereo not given)	-16%	9%	-4%	·	5%	·	-3.6%	-37%
Cn1c(SCC(O)c2ccccc2)nnc1-c1ccc2ccccc2c1 (stereo not given)	-1%	·	18%	·	2%	·	·	-2%
CC(C)Oc1ccc(CNC(=O)CCCN2C(=O)C(c3ccccc3)Oc3cccnc32)cc1 (stereo not given)	-6%	·	-9%	·	12%	·	·	-3%
O=c1[nH]c2cc3c(cc2cc1C(c1nnnn1C1CCCC1)N1CCSCC1)OCCO3 (stereo not given)	0%	-19%	6%	?	14%	1%	-3.5%	6%
COc1ccccc1-c1ccc(/C=C2\C=CC(=O)O2)o1	-3%	·	-14%	12%[14.2 µM]	-12%	?	·	-5%
Cc1cccc(-c2noc(-c3ccoc3C)n2)c1	3%	·	1%	·	4%	·	·	-4%
COc1ccc(CN(C)C2c3ccccc3-c3ccccc32)cc1	-9%	6%	-7%	?	-3%	-15%	-8.5%	-7%
Cc1onc(C(=O)Nc2cccnc2Cl)c1[N+](=O)[O-]	1%	·	-6%	0%[46.1 µM]	1%	-15%[46.1 µM]	·	·
O=C(Nc1cccc(Br)c1)c1cc(S(=O)(=O)N2CCOCC2)cs1	4%	·	?	-10%	1%	4%	·	7%
OCCC1CN(Cc2ccc3c(c2)CCO3)CCN1C1CCCC1 (stereo not given)	0%	·	-7%	11%[46.1 µM]	9%	-13%[46.1 µM]	·	1%
Cc1cc(-c2ccc(C)c(S(=O)(=O)Nc3ccc(C)c(N(C)C)c3)c2)on1	·	17%	45%[activator]	·	·	?	-3.3%	·
O=C(c1ccco1)N1CCN(c2ccc([N+](=O)[O-])cc2Cl)CC1	-2%	·	-13%	·	2%	·	·	-97%
CCC(C)Nc1nc(N)c([N+](=O)[O-])c(NCCO)n1 (stereo not given)	1%	·	9%	·	-5%	·	·	0%
CCCOC1CCCN(C(=O)c2cc(COc3cncc(Cl)c3)on2)C1 (stereo not given)	-3%	·	31%[activator]	·	-2%	·	·	-16%
O=C(CCCNC(=O)c1ccc(Cl)cc1)Nc1ncccc1O	3%	·	0%	·	2%	·	·	8%
Cc1c[nH]c2cccc(OCC(CNC(C)(C)C)OC(=O)c3ccccc3)c12 (stereo not given)	1%	·	-2%	12%	12%	?	·	-4%
COc1ccc(C2=NN(C(C)=O)CC2c2cccc([N+](=O)[O-])c2)cc1 (stereo not given)	3%	·	-16%	·	-10%	·	·	3%
CCN(CC)P(=O)(NC(=O)C(Cl)(Cl)Cl)N(CC)CC.[Cl-].[Cl-].[Cl-].[Nd+3]	-6%	-3%	-16%&-12%	?	-17%&-2%	-14%[46.1 µM]	2.6%	2%
CCOC(=O)c1sc2ncn(/N=C/c3ccc(O)c(OC)c3)c(=O)c2c1C	-1%	·	-8%	·	-19%	·	·	-1%
COc1ccc(CCNc2nc3cc(OC)c(OC)cc3c3nc(-c4ccccc4)nn23)cc1OC	·	-1%	4.5µM*	12%[46.1 µM]	·	·	-0.4%	·
CC1C2C(C)N(C)C(=O)N(C)C2N(C)C(=O)N1C (stereo not given)	-3%	-4%	-16%	-2%	7%	0%	-2.3%	3%
COc1ccc(C(=O)N2CCN=C2SC)cc1OC	0%	-4%	18%	4%[46.1 µM]	23%	-8%	-5.1%	11%
COc1ccc(C2CC(c3ccccc3)=NN2C(=O)CN2N=NC3C(=O)N(c4cccc(F)c4)C(=O)C32)cc1 (stereo not given)	-1%	?	1%	-44%	-16%	4%	-6.5%	24%
CC(C)N(C)C(=O)CCc1nnc(CCc2c[nH]c3ccccc23)o1	-1%	·	28%	?	14%	?	·	-4%
COc1ccc(C2(C(=O)Nc3ccccc3)CCOCC2)cc1	-2%	2%	-18%	23%	-3%	0%	-0.4%	-2%
CCOc1ccc(NC(=O)CCC(=O)NNC(=O)COc2ccc(C)cc2)cc1	0%	·	36%[activator]	23%[46.1 µM]	-2%	-4%	·	3%
Nn1c(SCC(=O)Nc2ccc(OC(F)F)cc2)nnc1-c1ccco1	1%	·	-17%	-1%	1%	-1%	·	·
O=C(/C=C/c1ccco1)Nc1cccc(S(=O)(=O)N2CCOCC2)c1	6%	1%	-12%	?	-1%	-3%	-6.5%	6%
Cn1cccc1CN1CCN(C(=O)COc2ccccc2)CC1	-2%	0%	-21%	2%	-6%	3%	4.1%	?
Cc1cc(C)n2nc(SCC(=O)N(C)C3CCCCC3)nc2n1	-3%	·	-1%	19%	5%	5%	·	·
CC1CN(S(=O)(=O)c2ccc(C(=O)N3c4ccccc4CC3C)cc2)CC(C)O1 (stereo not given)	0%	·	-5%	16%	9%	-1%	·	·
Cc1cccc(CNC(=O)c2ccc(N3Cc4ccccc4Oc4ncccc43)s2)c1	·	?	0%	·	·	?	-6.4%	·
NC(=O)CN1C(=O)NC2(CCCc3ccccc32)C1=O (stereo not given)	-5%	·	-14%	10%[46.1 µM]	3%	-9%[46.1 µM]	·	3%
CC(C)(C)c1nnc(NS(=O)(=O)c2ccc(F)cc2)s1	·	·	-5%	3%[46.1 µM]	-19%	-2%[46.1 µM]	·	·
Cc1cc(Cl)ccc1OCC(=O)NNC(=O)C1CCCO1 (stereo not given)	2%	·	-1%	4%[46.1 µM]	2%	5%	·	·
COc1cccc(-c2nc3ccccc3c(=O)o2)c1	4%	-9%	44%[activator]	?	9%	13%	1.3%	-5%
O=C(COc1ccc(Cl)cc1)N/N=C/CCc1ccccc1	0%	-12%	4%	-11%	14%	1%	0.9%	10%
CCOC(=O)c1cccc(NC(=O)Nc2ccc3c(c2)N(C)C(=O)c2ccccc2S3)c1	·	?	?	?	·	4%[46.1 µM]	-5.1%	·
COCCCNC(=O)c1cccc(NC(=O)c2ccccc2)c1	11%	-11%	-7%	20%	·	2%	-1.2%	6%
Cc1ccnn1-c1ccc(C(=O)NCc2ccccc2CN2CCOCC2)cc1	-2%	·	-17%	?	-23%	-9%[46.1 µM]	·	·
N#C/C(=C\c1ccccc1)c1nc(-c2cc3cc(Br)ccc3oc2=O)cs1	·	2%	-6%	·	·	-13%[46.1 µM]	0.3%	·

An excerpt of these results, with each value named.
structure: O=c1[nH]c2cc3c(cc2cc1C(c1nnnn1C1CCCC1)N1CCSCC1)OCCO3 (stereo not given)
  SARS PLP yeast = 0%; Cruzain inh noDet = -19%; 2A StopGo = 6%; Marburg entry inh = ?; RE007 growth inh = 14%; LASV entry inh = 1%; Cruzain Triton = -3.5%; NS1 function inh = 6%
structure: COc1ccccc1-c1ccc(/C=C2\C=CC(=O)O2)o1
  SARS PLP yeast = -3%; Cruzain inh noDet = ·; 2A StopGo = -14%; Marburg entry inh = 12%[14.2 µM]; RE007 growth inh = -12%; LASV entry inh = ?; Cruzain Triton = ·; NS1 function inh = -5%
